From PubChem BioAssay
Giardia killer – kills Giardia lamblia. 340,000 compounds, 0.15% hits. Giardia lamblia trophozoite viability. activity change, % at 7.66 µM, hits read low; in the data active means activity change below about -80%; inconclusive means between about -30% and that limit;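 further: parasites exposed to compound for two days anaerobically before the ATP read; on the % scale 0 is the no-effect control and ±100 the full control effect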
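Trophozoites 100 cells/well + cpd; 48 hrs, 37 deg C, anaerobic. ATPLite 1-Step added, 15-30 min RT, luminescence read (ATP-based viability).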
B2AR arrestin – beta2AR (human) beta-arrestin recruitment activity | P07550 | beta-arrestin recruitment to beta2AR, cell-based reporter | Potency, µM (doses to about 46.1 µM), for the others: top-dose activation, actives largely listed as activators | 330,000 compounds, 0.02% hits | AID 492947;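 further: potency means the concentration at half of the fitted maximal effect; 0% = DMSO controls and full agonism = EC100 isoproterenol or metaproterenol; nearly all actives have a fitted effect of over 65% in size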
USP2a inh – inhibitors of human ubiquitin-specific protease USP2a; O75604; USP2 core, Ub-CHOP2 coupled fluorogenic reporter, 485/531; Potency, µM (series often up to 38.3 µM), inactives show top-dose activity change, negative = inhibition, actives largely listed as inhibitors; 330,000 compounds, 0.01% hits;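 further: potency means the concentration at half of the fitted maximal effect; plate controls were DMSO wells for no effect and full inhibition by NEM control for full effect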
Target sequence (O75604 whole entry, looked up): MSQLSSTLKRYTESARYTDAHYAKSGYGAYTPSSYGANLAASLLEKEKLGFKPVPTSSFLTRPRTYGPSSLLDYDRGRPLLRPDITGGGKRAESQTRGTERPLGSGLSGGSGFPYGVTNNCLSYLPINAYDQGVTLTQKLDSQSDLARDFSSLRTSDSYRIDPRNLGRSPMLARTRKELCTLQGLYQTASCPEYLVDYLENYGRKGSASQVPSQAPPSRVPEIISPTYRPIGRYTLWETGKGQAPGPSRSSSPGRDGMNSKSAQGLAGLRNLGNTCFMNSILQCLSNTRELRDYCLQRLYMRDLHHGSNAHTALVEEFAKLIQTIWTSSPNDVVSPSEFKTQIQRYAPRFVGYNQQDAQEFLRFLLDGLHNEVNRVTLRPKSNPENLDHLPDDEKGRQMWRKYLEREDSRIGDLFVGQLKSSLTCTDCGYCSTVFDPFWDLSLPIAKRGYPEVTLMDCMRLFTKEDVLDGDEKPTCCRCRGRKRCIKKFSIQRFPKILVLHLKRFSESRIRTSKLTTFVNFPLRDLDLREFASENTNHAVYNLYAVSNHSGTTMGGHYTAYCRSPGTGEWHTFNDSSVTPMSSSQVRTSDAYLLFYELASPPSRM
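USP2 core (10nM final) preincubated 30min RT with compound in 20mM Tris-HCl pH 8.0, 2mM CaCl2, 2mM beta-mercaptoethanol, 0.05% CHAPS; 25nM Ub-CHOP2 plus 25nM reporter substrate added, fluorescence (Ex485/Em531) read after 60min.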
Coupling enz – coupling enzyme interference in Giardia aldolase counter-screen. coupling enzyme system counterscreen, AmpLite Red fluorescence. activity change, negative = inhibition, % at 58.2 µM, hits read low. 290,000 compounds, 0.67% hits. AID 2472; in the data active means activity change below about -30%; further: on the % scale 0 is the no-effect control and ±100 the full control effect
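First, compound is pin-transferred into glyceraldehyde-3-phosphate coupling-enzyme reagent at 57.5 uM final and held 10 min at RT. Next, substrate, coupling system and AmpLite Red are added. After 20 min RT, fluorescence (525/598 nm) is read.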
KCNH2 3.1 block – inhibitors of human KCNH2 3.1 potassium channel isoform; U2OS KCNH2 3.1, thallium flux FluxOr; hits give low values; activity change, % (tested at about 1.8 µM); 340,000 compounds, 0.95% hits; AID 720553;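 active means maximum activity change below -70%; inconclusive means maximum activity change from -70% to -50%; inactive means maximum activity change above -50%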;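 further: thallium influx rate constant from kinetic fluorescence after stimulation buffer; on the % scale 0 is the no-effect control and ±100 the full control effect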
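Steps: virus added to U2OS suspension (4 h, RT, dark); medium with 10% FBS added, cells plated, 37 C overnight; FluxOr/Red40 loading buffer 45 min RT; stimulation buffer, 2 min kinetic read; rate constant normalized.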
GALK inh – galactokinase (human) inhibition; 270,000 compounds, 0.007% hits; Purified GALK, Kinase-Glo residual ATP luminescence; Potency, µM (series often up to 57.5 µM), for inactives: top-dose activity change, negative = inhibition, actives largely listed as inhibitors; P51570; AID 1868; further: potency means the concentration at half of the fitted maximal effect; on the % scale 0 is the no-effect control and ±100 the full control effect
Target sequence (P51570 whole entry, looked up): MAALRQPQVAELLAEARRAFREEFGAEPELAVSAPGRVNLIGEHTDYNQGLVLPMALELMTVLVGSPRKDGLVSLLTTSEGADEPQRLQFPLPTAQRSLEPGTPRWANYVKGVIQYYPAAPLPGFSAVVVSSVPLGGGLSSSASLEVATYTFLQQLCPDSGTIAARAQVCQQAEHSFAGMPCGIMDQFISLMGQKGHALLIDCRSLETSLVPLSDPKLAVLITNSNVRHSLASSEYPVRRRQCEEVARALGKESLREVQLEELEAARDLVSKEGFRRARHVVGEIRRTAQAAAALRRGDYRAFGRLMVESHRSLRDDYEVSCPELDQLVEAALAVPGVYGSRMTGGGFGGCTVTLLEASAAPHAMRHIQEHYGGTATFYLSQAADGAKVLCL
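Luminescence from leftover ATP (Ultra-Glo luciferase/luciferin) served as read-out after a 1 h room-temperature reaction of 5 nM GALK with 35 uM ATP and 100 uM galactose.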
PKM2 activator – activators of human pyruvate kinase M2. Potency, µM (series often up to 57.5 µM), without a hit: at the highest dose activation, usual class: activators. purified PKM2, Kinase-Glo ATP luminescence, activation; response scale: 0% is enzyme alone, no compound. 260,000 compounds, 0.34% hits. P14618; further: potency means the concentration at half of the fitted maximal effect; on the % scale 0 is the no-effect control and ±100 the full control effect; nearly all actives have a fitted effect of over 55% in size
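Purified hPK-M2 (>95%) run at intermediate activity with 0.1 mM ADP and 0.5 mM PEP in 50 mM imidazole pH 7.2, KCl, MgCl2; 1 h room temperature. ATP formed read by Kinase-Glo luminescence; normalized to uninhibited and no-enzyme controls.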
TRPV1 agonist – activates the human vanilloid receptor TRPV1. Q8NER1. TRPV1-expressing cells, Fluo-8 calcium influx, agonist mode. activation, % at 8.33 µM. 320,000 compounds, 0.19% hits; in the data active means activation above about 80%; inconclusive means between about 30% and that limit; further: 0% is about no effect
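TRPV1-expressing cells were cultured overnight at 35.5C and loaded with Fluo-8 calcium dye for 40 to 90 min at room temperature. After a 10 s baseline, compound was added and calcium influx was read kinetically for 3 min (ex 480/em 520 nm).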
KCNH2 WT inh – blocks the wildtype human KCNH2 potassium channel; Q12809; U2OS, BacMam KCNH2, thallium flux FluxOr; hits give low values; activity change, % at 1.84 µM; 340,000 compounds, 0.37% hits;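 active means maximum activity change below -70%; inconclusive means maximum activity change between -70% and -50%; inactive means maximum activity change above -50%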; further: on the % scale 0 is the no-effect control and ±100 the full control effect
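U2OS cells were transduced with wild-type KCNH2 virus (2.03 x 10^8 / mL) for 4 h at room temperature, then cultured overnight at 37 C. Thallium flux was read with FluxOr dye. Rate constants were normalized to DMSO controls.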
An asterisk follows results filed as active; ? = inconclusive; . = not tested or not shown. Unless noted, the call rests on the fitted dose curve; in most records, active means well fitted curve in the direction sought with a large enough effect; inconclusive means small, poorly fitted or top-dose-only effect, or another doubt; inactive means no such curve, though single readings can be large; an effect the other way counts as inactive or inconclusive. These rows are one share of the data; count on the stated rates, not on these rows.

Start of the data: the first 13 records, ahead of the listing:
SMILES	Giardia killer	B2AR arrestin	USP2a inh	Coupling enz	KCNH2 3.1 block	GALK inh	PKM2 activator	TRPV1 agonist	KCNH2 WT inh
COc1ccccc1NC(=O)Nc1nnc(-c2ccco2)s1	.	-1.1%	-0.3%	.	.	-2.8%	-2.5%	0.6	.
CC12CCC(C/C1=N\N=C1\NC(=O)/C(=C\c3ccc(Cl)cc3)S1)C2(C)C (stereo not given)	-21.1	0.1%	3.1%	5.8	-3.8	-2.8%	12.2%	?	1.8
COc1ccc(-c2nn3c(-c4ccco4)nnc3s2)cc1OC	3.8	0.2%	-3.2%	5.7	1.3	-0.3%	-0.6%	2.2	-5.0
C/C(=N/NC(=O)c1cccc(N2CCCC2=O)c1)c1ccc(Br)cc1	15.5	-0.1%	0.2%	3.2	2.4	0.3%	2.0%	-0.2	-2.7
COC(=O)c1ccc(OCC(O)CN2CCN(C(=O)c3ccco3)CC2)cc1 (stereo not given)	?	-0.1%	1.1%	-5.9	25.3	.	.	-3.3	0.8
Cc1cc2oc(C(=O)NCCc3ccc(S(N)(=O)=O)cc3)c(C)c2cc1C	-1.2	-0.2%	0.1%	3.0	-11.0	1.8%	19.5%	?	1.5
N#CCC(=O)N/N=C/c1ccc(Sc2nc3ccccc3s2)o1	-4.8	0.2%	1.6%	-10.8	2.2	3.6%	6.4%	-1.1	0.0
COc1ccc(-c2cc3ccccc3oc2=O)cc1NC(=O)c1ccc([N+](=O)[O-])o1	-93.7*	-1.1%	-0.4%	1.6	0.4	7.2%	-3.8%	7.2	5.6
COc1ccccc1C1CCN(C(=O)c2ccc(Cl)cc2)CC1	0.1	0.3%	-14.6%	10.8	-5.6	.	.	?	0.1
CN1C(=O)/C(=C/c2ccc(OCc3cccc(F)c3)cc2)NC1=S	-15.0	-0.2%	0.2%	0.1	3.9	3.6%	-1.4%	1.4	4.5
Cc1nc2ccccc2nc1CN1CCN(Cc2ccc(F)c(F)c2)C(CCO)C1 (stereo not given)	-5.4	-0.8%	-0.2%	2.8	-23.5	0.3%	-1.7%	0.3	7.7
CCN(CC)CCn1c(NC(=O)c2ccccc2O)nc2ccccc21	18.3	-1.0%	2.5%	4.6	2.1	4.9%	-1.7%	26.4	22.4
CC(C)Oc1ccc(C(CCNCc2ccc(O)cc2)c2ccccc2)cc1 (stereo not given)	9.8	-0.1%	2.4%	1.2	-46.7	-0.2%	.	10.3	21.2

Results, from the first entry:
SMILES	Giardia killer	B2AR arrestin	USP2a inh	Coupling enz	KCNH2 3.1 block	GALK inh	PKM2 activator	TRPV1 agonist	KCNH2 WT inh
COc1ccccc1NC(=O)Nc1nnc(-c2ccco2)s1	.	-1.1%	-0.3%	.	.	-2.8%	-2.5%	0.6	.
CC12CCC(C/C1=N\N=C1\NC(=O)/C(=C\c3ccc(Cl)cc3)S1)C2(C)C (stereo not given)	-21.1	0.1%	3.1%	5.8	-3.8	-2.8%	12.2%	?	1.8
COc1ccc(-c2nn3c(-c4ccco4)nnc3s2)cc1OC	3.8	0.2%	-3.2%	5.7	1.3	-0.3%	-0.6%	2.2	-5.0
C/C(=N/NC(=O)c1cccc(N2CCCC2=O)c1)c1ccc(Br)cc1	15.5	-0.1%	0.2%	3.2	2.4	0.3%	2.0%	-0.2	-2.7
COC(=O)c1ccc(OCC(O)CN2CCN(C(=O)c3ccco3)CC2)cc1 (stereo not given)	?	-0.1%	1.1%	-5.9	25.3	.	.	-3.3	0.8
Cc1cc2oc(C(=O)NCCc3ccc(S(N)(=O)=O)cc3)c(C)c2cc1C	-1.2	-0.2%	0.1%	3.0	-11.0	1.8%	19.5%	?	1.5
N#CCC(=O)N/N=C/c1ccc(Sc2nc3ccccc3s2)o1	-4.8	0.2%	1.6%	-10.8	2.2	3.6%	6.4%	-1.1	0.0
COc1ccc(-c2cc3ccccc3oc2=O)cc1NC(=O)c1ccc([N+](=O)[O-])o1	-93.7*	-1.1%	-0.4%	1.6	0.4	7.2%	-3.8%	7.2	5.6
COc1ccccc1C1CCN(C(=O)c2ccc(Cl)cc2)CC1	0.1	0.3%	-14.6%	10.8	-5.6	.	.	?	0.1
CN1C(=O)/C(=C/c2ccc(OCc3cccc(F)c3)cc2)NC1=S	-15.0	-0.2%	0.2%	0.1	3.9	3.6%	-1.4%	1.4	4.5
Cc1nc2ccccc2nc1CN1CCN(Cc2ccc(F)c(F)c2)C(CCO)C1 (stereo not given)	-5.4	-0.8%	-0.2%	2.8	-23.5	0.3%	-1.7%	0.3	7.7
CCN(CC)CCn1c(NC(=O)c2ccccc2O)nc2ccccc21	18.3	-1.0%	2.5%	4.6	2.1	4.9%	-1.7%	26.4	22.4
CC(C)Oc1ccc(C(CCNCc2ccc(O)cc2)c2ccccc2)cc1 (stereo not given)	9.8	-0.1%	2.4%	1.2	-46.7	-0.2%	.	10.3	21.2
CCOc1ccc2c(c1)/C(=C(\C(Cl)=C(Cl)Cl)[N+](=O)[O-])N2	?	0.2%	?	-3.3	-10.7	-1.1%	0.8%	1.7	2.9
S=C(Nc1ccccc1)Nc1ccc(OCc2ccccc2)cc1	-1.8	-0.1%	1.5%	-0.4	-47.0	-3.7%	-1.2%	-1.1	1.5

A draw from above in order of SMILES length, smallest number first:
SMILES	Giardia killer	B2AR arrestin	USP2a inh	Coupling enz	KCNH2 3.1 block	GALK inh	PKM2 activator	TRPV1 agonist	KCNH2 WT inh
COc1ccccc1C1CCN(C(=O)c2ccc(Cl)cc2)CC1	0.1	0.3%	-14.6%	10.8	-5.6	.	.	?	0.1
COC(=O)c1ccc(OCC(O)CN2CCN(C(=O)c3ccco3)CC2)cc1 (stereo not given)	?	-0.1%	1.1%	-5.9	25.3	.	.	-3.3	0.8
CCOc1ccc2c(c1)/C(=C(\C(Cl)=C(Cl)Cl)[N+](=O)[O-])N2	?	0.2%	?	-3.3	-10.7	-1.1%	0.8%	1.7	2.9

More records follow:
SMILES	Giardia killer	B2AR arrestin	USP2a inh	Coupling enz	KCNH2 3.1 block	GALK inh	PKM2 activator	TRPV1 agonist	KCNH2 WT inh
Cn1cccc1C(=O)C(=O)Nc1cccc(Cl)c1Cl	0.6	0.3%	-0.4%	1.1	2.0	6.5%	-8.8%	-6.2	-17.6
Oc1ccccc1-c1cc(-c2ccccc2)no1	-10.9	-0.2%	-2.5%	-0.2	-3.0	-0.2%	-11.0%	20.9	0.4
Clc1ccc(-c2cc(CSc3ccccc3)on2)cc1	6.6	-0.1%	-0.2%	-4.1	-8.4	-0.5%	-8.5%	-6.2	-11.7
Cc1ncc([N+](=O)[O-])n1CC(=O)Nc1ccc(F)c(Cl)c1	-15.7	0.5%	3.5%	-0.8	-6.1	.	.	-2.3	5.3
CN1CCC(=C(c2ccc(Cl)cc2)c2ccccn2)CC1	-1.2	-0.9%	0.7%	1.8	-7.6	3.1%	1.5%	15.2	4.2
O=C(COc1ccc(Cl)cc1Cl)NC(=S)N1CCCc2ccccc21	2.4	0.1%	5.6%	0.3	0.2	-2.1%	4.0%	16.2	18.4
O=C(CSc1nnc2c(Cl)cc(C(F)(F)F)cn12)NCc1ccc(F)cc1	14.8	-1.9%	0.7%	-1.9	-3.2	3.2%	2.5%	13.0	-1.4
CCc1nc(NC(=O)Cc2csc(C)n2)sc1C(=O)OC	5.4	-1.2%	1.4%	2.9	3.0	.	.	-13.0	1.8
CCOc1ccc(NC(=O)CN2CCN(CC(=O)Nc3ccc4c(c3)OCCO4)CC2)cc1	-15.2	0.2%	2.4%	-0.5	?	-2.4%	-11.7%	1.7	11.7
COc1ccccc1NC(=S)N1CCc2cc(OC)c(OC)cc2C1	-12.9	-1.8%	0.1%	-0.3	8.6	.	-0.4%	20.0	-1.9
CN(C)/C=C(\C=N\OCc1ccc(Cl)cc1Cl)C(=O)Nc1ccc(Cl)c(Cl)c1	.	-0.2%	3.6%	3.3	.	-0.9%	1.6%	2.3	.
O=C(Nc1cc(C(F)(F)F)ccc1Cl)C(Sc1nnc(-c2cccs2)o1)c1ccccc1 (stereo not given)	-1.0	-0.4%	0.1%	-2.2	12.6	0.0%	-1.2%	7.0	-0.1
O=C(c1ccco1)N1CCCC(c2nc3c(nnn3Cc3ccccc3)c(=O)[nH]2)C1 (stereo not given)	7.4	0.8%	1.1%	1.6	-6.7	2.8%	6.8%	1.6	8.6
